Screens: PubChem BioAssay, National Center for Advancing Translational Sciences (NCATS)
GLA inh pH 4.5 = alpha-galactosidase A (human) inhibition, pH 4.5 | P06280 | purified enzyme, 4-MU-alpha-Gal fluorescence, pH 4.5 | activity change, negative = inhibition, % at 105 µM | 230,000 tested, under 10 active; inconclusive = small, poorly fitted or top-dose-only inhibition, or a rising curve; inactive = flat fitted curve, though single readings scatter; no compound was filed as active;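 also: 0% = full activity with enzyme and -100% = basal without enzyme; dose as in the result columns while the protocol names 77 µM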
Target sequence (P06280 whole entry, looked up): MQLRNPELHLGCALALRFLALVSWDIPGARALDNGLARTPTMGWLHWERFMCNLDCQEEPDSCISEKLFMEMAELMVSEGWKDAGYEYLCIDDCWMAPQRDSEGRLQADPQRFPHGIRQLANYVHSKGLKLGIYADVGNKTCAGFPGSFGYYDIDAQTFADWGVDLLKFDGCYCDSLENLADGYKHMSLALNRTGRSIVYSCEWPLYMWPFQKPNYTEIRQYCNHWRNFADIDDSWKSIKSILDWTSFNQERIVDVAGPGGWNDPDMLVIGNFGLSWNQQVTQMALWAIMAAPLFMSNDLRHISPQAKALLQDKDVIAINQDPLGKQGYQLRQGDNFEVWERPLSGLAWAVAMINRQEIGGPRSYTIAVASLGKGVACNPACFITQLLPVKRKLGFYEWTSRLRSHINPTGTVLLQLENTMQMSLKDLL
miR-21 reporter = miR-21 reporter, rising signal | HeLa miR-21 FLuc reporter, luciferase, 48 h | 340,000 tested, under 10 active | Potency, µM (top dose mostly 38.3 µM), inactives show at the highest dose reporter change, positive = more light; active = well fitted rising curve with a large enough effect; inconclusive = small, poorly fitted or top-dose-only effect; inactive = no such curve, though single readings can be large or run the other way;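 also: % of control where 0% means no effect; miR-21 action dims this reporter so a rising signal means less miR-21 action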
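Luminescence from a firefly luciferase reporter carrying a miR-21 binding site downstream, stably expressed under a CMV promoter in HeLa cells that make miR-21 endogenously, reports miRNA modulation after 48 h compound exposure up to approximately 40uM final.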
Rango-impB inh = prevents formation of the Rango-importin beta complex. Rango CFP/YFP FRET sensor + importin beta, 45 min. Q14974. 340,000 compounds, 0.031% hits. Potency, µM (highest dose often 92.2 µM), without a hit: at the highest dose inhibition of complex formation; active = rising FRET ratio curve, often small or poorly fitted; inconclusive = mostly compound fluorescence or quenching in the first reads; inactive = flat curves in all reads;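 also: potency is read from the fitted curve at half-maximal effect; 0% = DMSO wells and 100% = buffer wells lacking importin beta; nearly all actives have a fitted effect of over 15% in size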
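Inhibition scored from the CFP 486 nm/YFP 530 nm FRET ratio 45 min after adding 0.125 microM importin beta to 50 nM Rango biosensor preincubated 5 min with compound (room temperature, PBS with DTT, Tween-20, BSA). No-importin wells as positive control.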
Rango release inh = inhibitors of RanGTP-induced Rango-importin beta complex dissociation | Biochemical FRET Rango-importin beta, RanGTP-induced dissociation | Potency, µM (series often up to 46.1 µM), for the others: at the highest dose activity change, negative = inhibition | 340,000 compounds, 0.071% hits | AID 540253; active means falling FRET ratio curve, often poorly fitted, with flat reads before Ran was added; inconclusive means other falling curves, or compound fluorescence or quenching; inactive means flat or rising ratio curve;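 also: potency is read from the fitted curve at half-maximal effect; % of control where 0% means no effect; nearly all actives have a fitted effect of over 45% in size; -100% = wells without RanGTP and RCC1; the record marks most hits as doubtful in a second field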
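Rango/importin beta premix (0.1/0.25 uM final), PBS + 1 mM DTT + 0.02% Tween-20 + 0.1% BSA; cpd 5 min RT; FRET pre-read; + RanGTP-RCC1 (0.6 uM Ran, 2 mM GTP, 0.2 uM RCC1); 45 min RT; FRET post-read, ex 430, em 486/530 nm.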
* hit, by the source's call; u = inconclusive; x = not tested or not shown; & = joins results of further samples. Only part of the results is shown (hit frequency here may not be typical).

GLA inh pH 4.5	miR-21 reporter	Rango-impB inh	Rango release inh	SMILES
x	-1%	-1.0%	1%	CCc1nc2nc(C)c(NS(=O)(=O)c3ccc4c(c3)CCCC4)c(=O)n2[nH]1
x	1%	-1.2%	0%	Cn1c(SCc2ccc(Br)cc2)nc2ccccc2c1=O
x	5%	0.8%	6%	O=C(Nc1ccc(Oc2ccccc2)nc1)C1CCN(Cc2ccco2)CC1
x	x	-3.6%	-7%	C=CCn1c(=S)[nH]c2cc(C(=O)NCCc3ccc(S(N)(=O)=O)cc3)ccc2c1=O
-6	0%	0.0%	u	CCC(C)c1ccccc1NC(=O)COC(=O)CCc1cc(OC)c(OC)c(OC)c1 (configuration not stated)
x	x	-3.3%	-3%	Cn1ncc(=S)[nH]c1=S
7	5%	-1.2%	3%	CCOc1cccc(C(=O)Nc2ccc(N3CCN(S(C)(=O)=O)CC3)cc2)c1
-4	4%	-0.3%	-11%	COc1ccc(C2(CNC(=O)c3cccc([N+](=O)[O-])c3)CCCCC2)cc1OC
-6	0%	2.2%	5%	CC1=C(C(=O)OCCNC(=O)c2cccnc2)C(c2cccc([N+](=O)[O-])c2)C(C(=O)OCCN(C)C)=C(C)N1 (configuration not stated)
2	-9%	-0.7%	-16%	CC(=O)C1=C(O)C(=O)N(CCc2c[nH]c3ccccc23)C1c1ccc(C)cc1 (configuration not stated)
-28	-2%	-0.7%	-9%	CCN(CC)C(=O)Cn1cc(C(=O)C(=O)NCCc2ccc(S(N)(=O)=O)cc2)c2ccccc21
7	-2%	-0.1%	11%	Cc1nc2ccc(NC(=O)c3c(-c4ccccc4)noc3C)cc2s1
1	-7%	-2.5%	1%	CCC1=NN(C(=O)c2ccc(Br)cc2)C(O)(c2ccccc2)C1 (configuration not stated)
-2	2%	8.7%	-11%	CCN(C1CCCCC1)S(=O)(=O)c1cc(C)ccc1OC
u	-8%	u	0%	C/C(N)=C(/C#N)C(=O)COC(=O)c1ccccc1C(=O)c1ccc(C)cc1
-6	13%	-2.0%	4%	N#C/C(=C/c1ccc(Sc2nc3ccccc3[nH]2)o1)c1ccccc1F
9	0%	-2.4%	-4%	C=C(C)Cn1c(SCC(=O)O)nnc1-c1ccc(OC)cc1
x	-5%	2.0%	10%	Cc1cccc(C)c1Nc1ncnc2ccccc12
6	-11%	-1.0%	2%	Cc1nc2sc(C(c3cccs3)N3CCN(C(=O)c4ccco4)CC3)c(O)n2n1 (configuration not stated)
-3	15%	3.6%	-13%	N#CC1=C(N)Oc2cc3ccccc3cc2C1c1cccnc1 (configuration not stated)
0	-1%	-4.3%	-2%	O=C(c1ccc2c(c1)C(=O)N(Cc1ccco1)C2O)N1CCOCC1 (configuration not stated)
x	-4%	-0.4%	12%	COc1cccc(CNC(=O)CCCC(=O)Nc2cccc([N+](=O)[O-])c2)c1
5	-1%	u	9%	COc1ccc2c(C(F)(F)F)cc(=O)oc2c1C
-4	-53%	-4.8%	-14%	CC(C)Oc1cccc(C(=O)NC(=S)Nc2ccccc2)c1
-3	-3%	4.0%	-6%	COC(=O)CSc1nc(C2CC2)nc2ccccc12
-1	0%	-1.1%	1%	COC(=O)CNC(=O)C12CC3(C)CC(C)(CC(C)(C3)C1)C2
0	-1%	-0.6%	-12%	Cc1cccc(CCNS(=O)(=O)c2cnc[nH]2)c1
x	9%	-0.1%	-1%	CC(C)c1onc(C(=O)N2CCN(c3ccc(F)cc3)CC2)c1[N+](=O)[O-]
6	-1%	5.3%	-1%	CC(=O)Nc1ccc2c(c1)CCCN2C(=O)c1ccccc1
1	u	0.6%	3%	CCC(C)[C@@H](NC(=O)OC(C)(C)C)c1nnc(S(=O)(=O)Cc2cccc(C)c2)o1 (some centres not stated)

4 successive records out of the list so far, for reference:
GLA inh pH 4.5	miR-21 reporter	Rango-impB inh	Rango release inh	SMILES
x	-1%	-1.0%	1%	CCc1nc2nc(C)c(NS(=O)(=O)c3ccc4c(c3)CCCC4)c(=O)n2[nH]1
x	1%	-1.2%	0%	Cn1c(SCc2ccc(Br)cc2)nc2ccccc2c1=O
x	5%	0.8%	6%	O=C(Nc1ccc(Oc2ccccc2)nc1)C1CCN(Cc2ccco2)CC1
x	x	-3.6%	-7%	C=CCn1c(=S)[nH]c2cc(C(=O)NCCc3ccc(S(N)(=O)=O)cc3)ccc2c1=O

The listing picks up, repeating the 3 entries before the break.
GLA inh pH 4.5	miR-21 reporter	Rango-impB inh	Rango release inh	SMILES
x	9%	-0.1%	-1%	CC(C)c1onc(C(=O)N2CCN(c3ccc(F)cc3)CC2)c1[N+](=O)[O-]
6	-1%	5.3%	-1%	CC(=O)Nc1ccc2c(c1)CCCN2C(=O)c1ccccc1
1	u	0.6%	3%	CCC(C)[C@@H](NC(=O)OC(C)(C)C)c1nnc(S(=O)(=O)Cc2cccc(C)c2)o1 (some centres not stated)
x	-17%	0.1%	10%	C#CCOc1ccc2c3c(c(=O)oc2c1)CCCC3
-2	-20%	-0.4%	4%	COc1ccccc1-c1cc(C(=O)NCc2ccc(F)cc2)no1
-3	-42%	0.6%	-9%	CNC(=S)N/N=C/c1ccc(N(C)C)cc1
x	x	-2.1%	u	Cc1c(NC(=O)c2ccc(S(=O)(=O)N(C)C)cc2)cccc1-n1cnnn1
-4	-6%	u	-13%	CCOC(=O)c1ccccc1NC(=O)CSc1nc2ccccc2n1CC(=O)N1CCCC1
x	-67%	u	10%	Cc1ccc2c(c1)OC(c1ccc3c(c1)OCCO3)CC2=O (configuration not stated)
x	-2%	0.8%	-10%	Cc1cc(C)cc(Nc2nc3ccc(C)cc3n3cnnc23)c1
2	-7%	0.5%	-4%	CCOC(=O)c1cccc(NC(=O)COC)c1
4	4%	-3.0%	5%	CCCS(=O)(=O)c1ccc(COC(=O)c2cccc(NC(=O)C(C)C)c2)cc1
-1	-2%	u	-18%	COc1cccc(C2c3[nH]c4ccccc4c3CCN2Cc2cnc(C)s2)c1OC (configuration not stated)
x	x	-0.7%	-1%	CC1(C(=O)OCC(=O)NC(=O)c2ccccc2)CC1(Cl)Cl (configuration not stated)
-1	18%	0.0%	-19%	Cc1c(N/N=C(\C#N)C(=O)c2ccc(Cl)cc2)c(=O)n(-c2ccccc2)n1C
5	u	-4.0%&3.0%	-11%&4%	CC(C)(C)c1ccc(S(=O)(=O)N(CCCN2CCOCC2)Cc2cccs2)cc1
-3	-44%	-0.3%	26%	COc1ccc(C(=O)Nc2ccc(CN3CCOCC3)cc2)cc1
-1	-29%	0.6%	14%	O=C(COc1ccc(Cl)cc1Cl)NC(=O)N1CCOCC1
u	1%	u	1%	Cc1onc(-c2ccccc2)c1NC(=O)Nc1c(-c2ccccc2)noc1C
x	-3%	2.4%	10%	Cc1ccc(Cl)cc1NC(=O)C1CCCN(S(C)(=O)=O)C1 (configuration not stated)
9	-17%	1.1%	0%	CC(=O)Oc1ccc2oc3c(c2c1)C(=O)CCC3
1	1%	8.4%	-2%	O=C(NCc1ccc2c(c1)OCO2)C1CCCN1C(=O)Nc1ccccc1 (configuration not stated)
-2	-2%	0.0%	-7%	CCOC(=O)CCCNC(=O)CCNC(=O)c1ccc(OCC(C)C)cc1
1	-4%	-0.8%	20%	Cn1cccc1CC(=O)N/N=C/c1cc([N+](=O)[O-])ccc1Cl
-2	6%	-2.6%	0%	COc1ccc(N2C(=O)C(CC(=O)Nc3ccccc3)N(CCc3ccc(OC)c(OC)c3)C2=O)cc1 (configuration not stated)
x	x	-4.6%	-9%	CC(OC(=O)c1ccc2c(c1)OCO2)C(=O)NC1CCCCC1C (configuration not stated)
-20	-2%	-2.0%	3%	CCCCCCCCNC(=O)CCNC(=O)c1ccc(C(C)(C)C)cc1
1	-9%	3.6%	2%	CCOCCCNC(=O)c1ccccc1Br
0	0%	-1.3%	4%	O=C(O)c1ccc(CNCc2ccccc2F)cc1
-8	3%	-3.5%	-8%	CCOC(=O)c1sc(NC(=O)CSc2nnc(-c3ccco3)o2)c(C(=O)OCC)c1C
3	-3%	-0.8%	-2%	CCN(CC)S(=O)(=O)c1ccc(OC)c(NC(=O)CSc2ccccc2)c1
-13	-17%	-0.6%	12%	O=C(Nc1cccc2ncccc12)C12CC3CC(CC(C3)C1)C2
x	-3%	-5.2%	35%	Cc1nc2cc(NC(=O)c3ccco3)ccc2n1C

Other structures.
GLA inh pH 4.5	miR-21 reporter	Rango-impB inh	Rango release inh	SMILES
-10	16%	-0.2%	8%	CC(=O)Nc1ccccc1N(CC(O)Cn1c2ccccc2c2ccccc21)S(=O)(=O)c1ccc(C)cc1 (configuration not stated)
-5	-26%	5.1%	0%	Cc1cc(NC(=O)C(=O)c2cn(C)c3ccccc23)no1
x	x	5.1%	-16%	CC(Cc1ccccc1)=NNc1ccc([N+](=O)[O-])cc1[N+](=O)[O-]
0	7%	0.1%	-7%	O=C(CSC1CC(=O)N(c2ccc(C(=O)O)cc2)C1=O)Nc1ccc2ccccc2c1 (configuration not stated)
13	0%	0.1%	-19%	COc1cc(-c2nnc(SCC(=O)/C(C#N)=C(\C)N)o2)cc(OC)c1OC
-2	0%	0.3%	-3%	CCOc1nc(-c2ccccc2)ccc1-c1noc(-c2cccs2)n1
1	8%	3.6%	-11%	O=S(=O)(c1ccc2c(c1)OCCO2)N1CCC(c2nc3ccccc3[nH]2)CC1
x	x	-4.4%	-16%	NC(=O)Cc1ccc(C(=O)CSc2nnc(-c3ccncc3)n2C2CC2)s1
6	-13%	2.9%	-3%	CCNC(=O)C12CCC(C)(c3nc4cc(C)c(C)cc4nc31)C2(C)C (configuration not stated)
x	x	-0.7%	-19%	COc1ccccc1OCC(=O)Nc1cc(C(F)(F)F)ccc1-n1cncn1
x	-1%	3.2%	-12%	CC(=O)c1ccc(NC(=O)Cn2c(=O)oc3ccccc32)cc1
1	-5%	1.1%	2%	c1ccc(-c2nnc3n2-c2ccccc2SC3)cc1
2	-2%	-0.6%	4%	Cc1c(N/C(=N/S(=O)(=O)c2ccccc2)c2ccc(Cl)cc2)c(=O)n(-c2ccccc2)n1C
-3	0%	-3.1%	14%	O=Cc1ccc(Oc2ccc(F)cc2)nc1
x	-14%	4.4%	12%	Fc1ccc(Br)cc1/C=N/N1CCN(c2ccccc2)CC1
x	x	-0.2%	0%	COc1ccc2sc(-c3ccc(S(C)(=O)=O)cc3)c(C(=O)NCCCN3CCCC3=O)c2c1
0	-1%	-3.4%	-9%	Cc1ccc(CNC(=O)Cn2c([N+](=O)[O-])cnc2C)cc1
x	x	0.0%	11%	O=C(OCc1ccccc1)c1ccccc1O
x	6%	-0.1%	0%	COc1cc(/C=N/NC(=O)CCC(=O)Nc2ccc(Br)cc2)ccc1O
-3	-16%	7.2%	11%	O=C(CN1C(=O)CSC1=O)N1CCCCC1
1	-37%	-0.5%	0%	CS(=O)(=O)N1CCN(c2ccc(NC(=O)c3ccccc3)cc2)CC1
x	3%	0.2%	3%	CC(NC(=O)C(c1ccccc1)c1ccccc1)c1ccc(S(N)(=O)=O)cc1 (configuration not stated)
6	4%	3.8%	-4%	O=C(OCc1nnc(-c2ccccc2)o1)c1ccccc1
-1	0%	-0.3%	6%	COc1ccc(C2CC(C(F)(F)F)n3nc(C(=O)N(C)Cc4cn(C)nc4C)c(Cl)c3N2)cc1 (configuration not stated)
2	-20%	-1.5%	0%	COc1ccc(Oc2cc(Cl)nc(N)n2)cc1
8	-8%	u	u	COc1ccc(C2CC(=O)Nc3sc(=N)c4c(N)c(C#N)c(N)nc4c32)cc1OC (configuration not stated)
x	-5%	-2.0%	-2%	COC(CNC(=O)c1ccc(CS(=O)(=O)c2c(Cl)cccc2Cl)o1)OC
